YopH PTP inh: inhibitors of Yersinia enterocolitica YopH tyrosine phosphatase; fluorescence Ex485/Em525; inhibition, %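 (about 10 µM by stock and volumes)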; 140,000 compounds, 0.16% hits;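 active means inhibition of 50% or more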;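 further: controls were vehicle for no effect and minimum signal wells for full effect; inactives centre near -20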
Mtb H37Rv: M. tuberculosis H37Rv growth inhibitors, H37Rv strain (AID 1626); M. tuberculosis H37Rv growth inhibition; higher % means a stronger effect; inhibition, % at 10 µM; hits with a dose series show IC50 in µM; 220,000 compounds, 0.95% hits;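 active means confirmed in a dose series; inconclusive means inhibition above 80% but not taken into the dose series; inactive means below 80% or under 30% at every dose of the series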;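 further: bacteria incubated seven days before Alamar blue readout; 0% = bacteria only wells and 100% = bacteria with antibiotic wells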
Mtb bLac sens: beta-lactam sensitization of Mtb H37Rv | M. tuberculosis H37Rv growth with meropenem, percent inhibition; hits of this screen are not shown here | inhibition, % at 25 µM | 330,000 compounds, 0.27% hits;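 active means about 74% or more and at least 40 points above the plate without the antibiotic, then above 30% in a dose series; inconclusive means first-round hits that could not be retested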;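 further: growth measured after seven days incubation then overnight dye step; 0% = bacteria only wells and 100% = bacteria with antibiotic; twin plates without the antibiotic show which effects depend on it; some results filed as inactive read as strong as hits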
RecA splice inh: inhibitors of M. tuberculosis RecA intein splicing. cell-free RecA intein splicing, fluorescence. P9WHJ3. 290,000 compounds, 0.75% hits. inhibition, %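 (about 9 µM by stock and volumes)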. AID 2221; in the data active means inhibition above about 30%; inconclusive means no clear call, values can overlap the other calls;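 further: 0% = vehicle wells and 100% = reference inhibitor control wells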
Target sequence (P9WHJ3 whole entry, looked up, canonical isoform): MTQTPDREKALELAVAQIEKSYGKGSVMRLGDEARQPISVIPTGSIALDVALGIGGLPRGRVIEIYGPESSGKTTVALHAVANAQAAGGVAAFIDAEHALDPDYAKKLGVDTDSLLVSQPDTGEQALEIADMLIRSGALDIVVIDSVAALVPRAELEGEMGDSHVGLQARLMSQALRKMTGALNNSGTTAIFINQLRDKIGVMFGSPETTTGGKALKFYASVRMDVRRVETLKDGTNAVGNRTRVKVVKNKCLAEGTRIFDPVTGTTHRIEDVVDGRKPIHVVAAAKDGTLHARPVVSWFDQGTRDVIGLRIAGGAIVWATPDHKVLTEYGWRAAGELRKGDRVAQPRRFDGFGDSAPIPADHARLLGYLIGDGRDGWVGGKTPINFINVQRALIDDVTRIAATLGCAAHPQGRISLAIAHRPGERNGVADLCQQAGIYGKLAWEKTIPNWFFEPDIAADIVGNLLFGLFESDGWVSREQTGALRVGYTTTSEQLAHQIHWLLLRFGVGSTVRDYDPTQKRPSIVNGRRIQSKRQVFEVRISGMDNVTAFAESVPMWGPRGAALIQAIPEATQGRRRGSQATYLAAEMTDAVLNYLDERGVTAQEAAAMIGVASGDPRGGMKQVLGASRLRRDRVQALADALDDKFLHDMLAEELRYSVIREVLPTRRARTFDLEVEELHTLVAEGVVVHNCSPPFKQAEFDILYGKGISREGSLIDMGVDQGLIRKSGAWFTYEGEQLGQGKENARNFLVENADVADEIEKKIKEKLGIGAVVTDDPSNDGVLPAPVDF
Arbovirus inh: arbovirus infection inhibition. 200,000 compounds, 0.37% hits. AID 1251. inhibition, % at 10 µM. arbovirus infection cell-based antiviral screen;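 active means inhibition from about 30%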;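 further: bluetongue infection of BSR cells; cell survival read as ATP light after 72 h; 0% = infected wells without compound and 100% = uninfected wells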
Arbovirus inh repeat: further read-out of Arbovirus inh, marked with its call; inhibition, %; measured here: 10K subset replicate screen; many hits read low in the repeat;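 first of two repeat runs on a subset; 0% = infected and 100% = uninfected wells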
* hit, by the source's call; ? = inconclusive; / = not tested or not shown. A portion of the library; count on the stated rates, not on these rows.

SMILES	YopH PTP inh	Mtb H37Rv	Mtb bLac sens	RecA splice inh	Arbovirus inh	others
O=C1N=C(N2CCCC2C(=O)O)S/C1=C\c1ccco1 (configuration not stated)	/	-2%	-6	1.0	4
COCCCNC(=O)CSc1nc2ccccc2c(=O)n1CCC(=O)NCCc1ccc(OC)c(OC)c1	/	4%	-10	0.2	12
CCN(CC)c1ccc(C=C2C(=O)OC(C)(C(C)(C)C)OC2=O)cc1 (configuration not stated)	/	/	-4	-1.0	/
COc1ccccc1N1CCN(C(c2cccs2)C(C)NC(=O)c2ccco2)CC1 (configuration not stated)	/	3%	-8	1.3	/
CN(C)c1ccc(C(C#N)c2ccc(Cl)cc2)nn1 (configuration not stated)	/	-4%	-4	1.0	-9
C[C@H](NC(=O)N1CCn2c1nc1ccccc12)C(=O)NCc1ccc2c(c1)OCO2	/	/	0	-0.2	/
COC(=O)c1ccc(CNC(=O)c2coc3ccccc3c2=O)cc1	/	-6%	2	-0.4	14
CC(C)CCNc1nc(N)c([N+](=O)[O-])c(NCC2CCCO2)n1 (configuration not stated)	-9	12%	1	1.6	-1
CC1CN(C2CCN(C(=O)c3ccccc3Cl)CC2)CC(C)O1 (configuration not stated)	-33	-4%	4	-2.1	-5
O=C(/C=C/c1cccc([N+](=O)[O-])c1)NCCSCc1ccccc1Cl	5	8%	1	-1.7	-19
CC(C)Sc1ncnc2c1oc1ccccc12	-15	10%	18	0.3	4
Cc1ccccc1-n1nc2c(c1NC(=O)CCCl)CSC2	/	/	-4	-0.2	/
NC(=O)CSc1nnc(-c2cnccn2)n1-c1ccccc1	-19	-4%	-8	-0.1	10
O=C(Cn1cc([N+](=O)[O-])cn1)Nc1cccnc1	/	1%	-7	5.3	0
O=C(CSc1nc2ccc(Cl)cc2[nH]1)NC1CCCc2ccccc21 (configuration not stated)	-20	17%	-1	4.1	2
CCOC(=O)CC1(NC(=O)c2cc(COc3cccc(OC)c3)on2)CCCCC1	/	/	8	3.2	/
CC(C)Cc1nnc(NC(=O)c2ccncc2)s1	-49	6%	-3	-0.3	9
COc1ccc(N2C(=O)/C(=C/c3cccnc3)NC2=S)cc1	-4	3%	3	-1.6	-14
CCc1c(C)sc2nc(C(C)C)nc(SCC(=O)N3CCc4ccccc4C3)c12	-40	5%	64	9.7	-17
Cc1ccc(C)n1-c1ccc(-n2cnnn2)cc1	9	-15%	1	4.8	-4	Arbovirus inh repeat=2
Cc1nc(NC(=O)COC(=O)c2ccc(S(=O)(=O)N3CCc4ccccc4C3)cc2)c(Cl)cc1Cl	/	-3%	4	-1.1	-1
CC(C)OCCCNC(=O)c1ccc(C2SCC(=O)N2Cc2ccco2)cc1 (configuration not stated)	/	-11%	-20	-0.4	1
Cc1cc(C)nc(SCC(=O)Nc2ncc(Cc3ccc(Cl)c(Cl)c3)s2)n1	-25	-6%	-5	2.1	-5
Brc1ccc(OCc2ccccc2)c(CNCC2CCCO2)c1 (configuration not stated)	/	4%	-2	0.2	10
CCOC(=O)C1C(=O)C=C(c2ccc(C)cc2)CC1c1ccc([N+](=O)[O-])cc1 (configuration not stated)	-28	-3%	/	/	5

(listing goes on)
SMILES	YopH PTP inh	Mtb H37Rv	Mtb bLac sens	RecA splice inh	Arbovirus inh	others
Cc1nn(-c2cc(N3CCCC3)ccc2[N+](=O)[O-])c(=O)c2ccccc12	-7	3%	-4	-5.3	1
COc1cccc(CC2(CO)CCCN(Cc3cn(C)c4ccccc34)C2)c1 (configuration not stated)	/	3%	-5	1.6	-20
CCN(c1ccccc1)S(=O)(=O)c1ccc(NC(=O)c2ccco2)cc1	/	-1%	-8	1.3	-9
O=C(C(=O)N1CCOCC1)c1cn(Cc2ccccc2F)c2ccccc12	/	/	-1	-2.0	/
Cc1cc(N2CCOCC2)nc2ccc(NC(=O)CCC(=O)N3CCCCC3)cc12	-25	-5%	54	-3.2	2
CCOc1cc2[nH]c(=S)n(C3CC3)c(=O)c2cc1OCC	/	4%	-8	0.4	12
CC(C)C(=O)Nc1nnc(SCC(=O)N2c3ccccc3CC2C)s1 (configuration not stated)	-9	-9%	?	/	39*
O=C(COc1ccccc1Br)NC1CC1	/	/	1	-3.1	/
CCc1ccccc1OCCCN1CCCC1	/	/	-10	-1.7	/
CCOC(=O)C1CCN(c2nc(-c3ccc(C)cc3)nc3ccccc23)CC1	/	6%	21	5.8	-2
CSc1cccc(CN2CCC(CCC(=O)NC3CC3)CC2)c1	/	/	-6	-0.6	/
Cc1onc(-c2ccccc2)c1C(=O)NC(=S)NNC(=O)c1ccco1	/	19%	48	1.2	/
CC(Sc1nnc(NC(=O)c2cc3ccccc3oc2=O)s1)c1ccccc1 (configuration not stated)	-50	?	47	-0.6	6
CCOC(=O)Cc1csc(/N=C/c2c(O)n(-c3ccc(C)cc3C)c(=O)c3ccccc23)n1	-27	0%	-1	-18	-8
Cc1ccc(NC(=O)CN(C)Cc2nc3ccccc3c(=O)[nH]2)c(Br)c1	-4	-7%	-4	1.6	3
CNc1nc2[nH]c(=O)c3c(c2s1)OC(N)=C(C#N)C3c1cccc(F)c1 (configuration not stated)	-29	/	9	1.7	10
NC(=O)Cc1ccc(C(=O)c2ccc(Cl)cc2)s1	/	10%	-1	1.3	24
CCCCN(C)CCCNC(=O)c1cn(CC)c2ccc(S(=O)(=O)N3CCOCC3)cc2c1=O	/	/	3	1.1	/
CCOc1cc(C(=O)Nc2ccc3c4c(cccc24)C(=O)N3CC)cc(OCC)c1OCC	-22	-3%	12	-25	-14
CCOC(=O)C(NC(=O)CC)(Nc1ccc(S(=O)(=O)Nc2onc(C)c2C)cc1)C(F)(F)F (configuration not stated)	-34	-1%	1	-1.0	3
O=C(NNS(=O)(=O)c1ccccc1)c1ccncc1	0	-6%	0	-5.7	0
Nn1c(SCc2cc([N+](=O)[O-])cc3c2OCOC3)nnc1-c1ccccn1	/	-11%	-4	-0.7	/
COc1cccc(-c2c(NC(=O)c3ccco3)n(-c3ccc(C)cc3)nc(C)c2=O)c1	-25	-6%	4	1.4	1
COc1ccc(C2C(C(=O)N3CCC4(CC3)OCCO4)c3cc(OC)c(OC)cc3C(=O)N2C)cc1 (configuration not stated)	-18	-6%	6	0.1	7	Arbovirus inh repeat=3
O=C(NC(=S)N1C[C@H]2C[C@H](C1)c1cccc(=O)n1C2)c1ccc(Cl)cc1	/	/	-2	11	/

Some of these compounds in order of formula weight, largest number first:
SMILES	YopH PTP inh	Mtb H37Rv	Mtb bLac sens	RecA splice inh	Arbovirus inh	others
COCCCNC(=O)CSc1nc2ccccc2c(=O)n1CCC(=O)NCCc1ccc(OC)c(OC)c1	/	4%	-10	0.2	12
Cc1nc(NC(=O)COC(=O)c2ccc(S(=O)(=O)N3CCc4ccccc4C3)cc2)c(Cl)cc1Cl	/	-3%	4	-1.1	-1
CCOC(=O)Cc1csc(/N=C/c2c(O)n(-c3ccc(C)cc3C)c(=O)c3ccccc23)n1	-27	0%	-1	-18	-8
COc1cccc(-c2c(NC(=O)c3ccco3)n(-c3ccc(C)cc3)nc(C)c2=O)c1	-25	-6%	4	1.4	1
CC(Sc1nnc(NC(=O)c2cc3ccccc3oc2=O)s1)c1ccccc1 (configuration not stated)	-50	?	47	-0.6	6
C[C@H](NC(=O)N1CCn2c1nc1ccccc12)C(=O)NCc1ccc2c(c1)OCO2	/	/	0	-0.2	/
COc1cccc(CC2(CO)CCCN(Cc3cn(C)c4ccccc34)C2)c1 (configuration not stated)	/	3%	-5	1.6	-20
CC(C)C(=O)Nc1nnc(SCC(=O)N2c3ccccc3CC2C)s1 (configuration not stated)	-9	-9%	?	/	39*
CCOC(=O)C1CCN(c2nc(-c3ccc(C)cc3)nc3ccccc23)CC1	/	6%	21	5.8	-2
CNc1nc2[nH]c(=O)c3c(c2s1)OC(N)=C(C#N)C3c1cccc(F)c1 (configuration not stated)	-29	/	9	1.7	10
CC1CN(C2CCN(C(=O)c3ccccc3Cl)CC2)CC(C)O1 (configuration not stated)	-33	-4%	4	-2.1	-5
CC(C)CCNc1nc(N)c([N+](=O)[O-])c(NCC2CCCO2)n1 (configuration not stated)	-9	12%	1	1.6	-1
Cc1ccccc1-n1nc2c(c1NC(=O)CCCl)CSC2	/	/	-4	-0.2	/
COc1ccc(N2C(=O)/C(=C/c3cccnc3)NC2=S)cc1	-4	3%	3	-1.6	-14
CCOc1cc2[nH]c(=S)n(C3CC3)c(=O)c2cc1OCC	/	4%	-8	0.4	12
NC(=O)Cc1ccc(C(=O)c2ccc(Cl)cc2)s1	/	10%	-1	1.3	24
O=C(NNS(=O)(=O)c1ccccc1)c1ccncc1	0	-6%	0	-5.7	0

(listing goes on)
SMILES	YopH PTP inh	Mtb H37Rv	Mtb bLac sens	RecA splice inh	Arbovirus inh	others
CCC1(CC)C(=N)N(C)C(=O)NC1=O	-24	-3%	2	-1.2	5
CCN(Cc1ccccc1)S(=O)(=O)c1ccc(C(=O)Nc2nnc(C)o2)cc1	/	/	85	2.2	/
CN1CCc2c(sc3c2C(=O)NC(c2ccc4c(c2)OCO4)N3)C1 (configuration not stated)	/	-1%	-1	-2.4	/
N=C1C(=O)OCC1c1ccccc1NC(=O)Nc1ccccc1 (configuration not stated)	/	1%	3	-3.6	20
O=C(Nc1ccc(S(=O)(=O)Nc2ccccc2)cc1)C1CC1	/	/	-3	-0.1	/
O=C(O)CC1C(=O)NCCN1Cc1ccc(F)c(F)c1 (configuration not stated)	/	2%	0	-1.6	0	Arbovirus inh repeat=2
Cc1cc(C)n(CC(=O)N2N=C(C(F)F)CC2(O)C(F)F)n1 (configuration not stated)	-5	1%	0	1.5	-4
CNC(=O)c1ncoc1-c1ccc(Cl)cc1	/	-13%	-15	0.3	/
COc1cc(/C=N/NC(=O)Nc2ccccc2)ccc1OCCOc1ccccc1C	-32	-8%	10	-0.9	-20
COc1cccc(/C=N/NC(=O)c2cc(-c3cccn3C)n[nH]2)c1O	-8	-3%	-3	12	-19
C/C=C/c1ccc(OCCCNC)c(OC)c1	-27	-1%	-5	1.1	-11
COc1ccc(CNC(=O)CCNS(=O)(=O)c2ccc(Cl)cc2)cc1	/	7%	3	3.3	3
O=C(NC(=S)Nc1ccc(Cl)c(C(=O)O)c1)c1cncc(Br)c1	/	/	11	-4.8	/
O=C(CSc1nccn(-c2ccc(F)c(Cl)c2)c1=O)NC1CCCC1	/	/	-6	4.3	/
C=CCC(c1ccccc1)N(C(C)=O)c1ccco1 (configuration not stated)	/	5%	-4	1.7	1
O=C(Nc1ccccc1)c1cc([N+](=O)[O-])ccc1Cl	/	9%	0	-2.9	/
COc1ccc(-c2nc3ccccc3c(=O)n2-c2c(C)n(C)n(-c3ccccc3)c2=O)cc1	/	-4%	4	-1.9	/
CC12CS(=O)(=O)CC1SC(=S)N2c1ccccn1 (configuration not stated)	-42	-1%	-3	-0.4	2
O=C(Cn1ncc(Cl)c(Cl)c1=O)c1ccc(Cl)cc1	-18	/	90	13	-36
COc1ccc(CN2C(=O)/C(=C/c3ccncc3)SC2=S)cc1	-25	7%	95	5.9	-40
CSc1ccc(CN(C)C(=O)c2cccc(S(=O)(=O)NCc3ccccc3)c2)cc1	/	/	-12	0.8	/
Cc1cc(/C=N/n2cnnc2)c(C)n1-c1cc(Cl)ccc1Cl	-37	6%	7	2.7	-15	Arbovirus inh repeat=-10
COc1ccc(N(CC(=O)NN=C2CCN(C)CC2)S(=O)(=O)c2ccccc2)c(OC)c1	/	/	-12	0.7	/
Cc1ccccc1-n1c(SCc2c(C)noc2C)nnc1-c1ccncc1	7	-8%	-4	/	-7
CCC(=O)c1ccc(OCC(=O)N2CCN(c3ccccn3)CC2)cc1	/	/	-13	-5.1	/

Next structures follow:
SMILES	YopH PTP inh	Mtb H37Rv	Mtb bLac sens	RecA splice inh	Arbovirus inh	others
Cc1ccc(NC(=O)C(Cc2ccccc2)n2cccc2)cc1 (configuration not stated)	/	-2%	-11	7.6	/
Cn1c(=S)[nH]c2cccnc21	-25	-1%	-9	0.6	1
CCCCCCNC(=O)c1c(O)c2ccccc2[nH]c1=O	-3	3%	65	-0.3	-9
O=c1[nH]c2ccc(Cl)cc2c(O)c1-c1ccccc1	-20	0%	83	-1.6	-13
Cc1cc(C)n(C(=O)CN2C(=O)c3ccccc3C2=O)n1	-39	-2%	-9	-1.6	2
CCCCCC(=O)Nc1ccc(S(=O)(=O)Nc2cc(OC)nc(OC)n2)cc1	/	/	-6	-1.6	/
Cc1ccccc1S(=O)(=O)Cc1ccc(C(=O)NC(C)c2ccc3c(c2)OCCO3)o1 (configuration not stated)	-54	-9%	-5	1.5	6
COc1ccc(N)cc1-n1cnnn1	/	>100µM*	85	-0.6	6
CCOC(=O)Cc1csc(NC(=S)NC(=O)c2ccccc2C)n1	-31	3%	-2	6.6	14
COC(=O)C1(C)NC(c2ccc(Cl)cc2)C2C(=O)N(c3ccccc3)C(=O)C21 (configuration not stated)	/	/	-8	-1.0	/

Source: PubChem (several laboratories)
